Screening data from PubChem.
HPGD block – blocks human HPGD enzyme activity; P15428; purified HPGD, NADH fluorescence kinetic, PGE2 substrate; Potency, µM, inactives show at the top dose activity change, negative = inhibition, usual class: inhibitors; actives 4.3% (n = 150,000); AID 894; active = well fitted inhibition curve with a large enough effect (not every such curve was filed as active); inconclusive = small, poorly fitted or top-dose-only effect, or another doubt; inactive = no such curve, though single readings can be large or run the other way;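 further: top concentration of the series not given in the record; plate controls included wells without enzyme; inactives centre near -10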
Target sequence (P15428 whole entry, looked up): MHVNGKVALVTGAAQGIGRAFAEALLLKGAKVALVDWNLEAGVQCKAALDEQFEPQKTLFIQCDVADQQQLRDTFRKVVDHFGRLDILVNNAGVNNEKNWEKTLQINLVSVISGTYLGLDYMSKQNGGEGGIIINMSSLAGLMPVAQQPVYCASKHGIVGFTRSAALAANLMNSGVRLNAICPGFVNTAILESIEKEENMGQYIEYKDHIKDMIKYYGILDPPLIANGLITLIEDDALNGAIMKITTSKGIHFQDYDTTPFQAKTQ
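20 nM HPGD preincubated 15 min at room temperature with compound in 50 mM Tris-HCl pH 8, 0.01% Tween 20. Started with 1 mM NAD+ and 30 uM prostaglandin E2; NADH fluorescence (360/450 nm) read 5 times over 30-s intervals, last minus first.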
An asterisk follows results filed as active; ? = inconclusive. On the % scale 0 is the no-effect control and ±100 the full control effect; potency means the concentration at half of the fitted maximal effect. The list is partial; rates above refer to the full screens.

HPGD block | SMILES
-11% | N#Cc1ccc(C23CC4(C2)[C@H](CN(Cc2ccc(-c5ccccc5)cc2)[C@@H]4c2ccccc2)C3c2ccc(Cl)nc2)cc1 (stereo not given in full)
-11% | Cc1ccc(NC(=O)COC(=O)COc2ccc(Cl)cc2)c([N+](=O)[O-])c1
-4% | O=C(CNC(=O)c1cccs1)NCC(=O)OCc1ccc(Cl)cc1
-8% | CC1=NN(C(=O)CCc2ccccc2O)C(O)(C(F)(F)F)C1 (stereo not given)
-13% | CCC1(CC)C(=O)NC(=O)NC1=Nc1ccccc1
-8% | CCCCc1c(C)nn(-c2nnc3c4ccccc4n(C)c3n2)c1C
-6% | CC(NC(=O)COC(=O)c1ccc2c(c1)S(=O)(=O)N=C1CCCCCN12)C12CC3CC(CC(C3)C1)C2 (stereo not given)
-5% | CCN(CC)S(=O)(=O)c1ccc(S(=O)(=O)N(CC(=O)Nc2ccccc2)Cc2ccco2)cc1
10µM* | CC1(C)CC(=O)C(C(C2=C(O)CC(C)(C)CC2=O)c2ccco2)C(=O)C1 (stereo not given)
? | CNS(=O)(=O)c1cccc(C(=O)OCC(=O)/C=C2/N(C)c3ccccc3C2(C)C)c1
-24% | COc1ccccc1N=NC1=C(O)CC(C)(C)CC1=O
-4% | Cc1cc(C)c(NC(=O)c2ccc[n+](Cc3ccc([N+](=O)[O-])cc3)c2)c(C)c1
4% | Cc1cc(C)nc(Nc2n[nH]c(-c3ccc(N)cc3)n2)n1
-11% | O=c1[nH][nH]c(-c2ccccc2O)c1C(C[N+](=O)[O-])c1ccccc1 (stereo not given)
-9% | OC(CNCC1CCCO1)Cn1c2ccc(Cl)cc2c2cc(Cl)ccc21 (stereo not given)
-8% | Cc1ccc(-c2nnc(SCC(=O)N/N=C/c3ccc(C)s3)n2-c2ccc(C)cc2)cc1
-15% | CCn1c2ccccc2c2nnc(SCc3ccccc3)nc21
? | CCCCn1nc2cc(C(=O)NCc3cc(C(F)(F)F)cc(C(F)(F)F)c3)ccc2c1OC
0% | Cc1cc(C(C)(C)C)cc(S(=O)(=O)NCC(=O)O)c1C
-8% | COc1cc(CC(C#N)(CO)c2nc3ccccc3[nH]2)ccc1OC(F)F (stereo not given)
0% | COC(=O)CSc1nc2c(c(=O)[nH]c(=O)n2C)n1CCC(C)C
-20% | O=C(c1ccc(C(F)(F)F)cc1)N1CCC(=O)N([C@H](COCc2ccc(Cl)cc2)Cc2ccccc2)CC1
-14% | CCC(C(=O)NCCN1CCN(C)CC1)n1c(C)c2cnn(-c3ccccc3)c(=O)c2c1C (stereo not given)
-7% | COC(=O)N[C@@H](/C=C/c1ccccc1)C[N+](=O)[O-]
-6% | Nc1nnc(CCC2CCCCC2)s1
-11% | COc1cccc(N(CC(=O)NC2CCCC2)C(=O)Cn2nnc(-c3ccc(C)cc3)n2)c1
-29% | Cc1cccc(NC(=O)COc2ccc(Br)cc2/C=N/O)c1
-13% | O=C(COC(=O)c1cc([N+](=O)[O-])ccc1NCc1ccccc1Cl)NCC(F)(F)F
-12% | O=c1c2cc(N3CCOCC3)ccc2[nH]c(=S)n1CCCN1CCCC1
-17% | CCOC(=O)c1[nH]c(CSc2nnc(-c3ccc(OC)cc3)o2)c(C(=O)OCC)c1C
-16% | COc1cccc(COc2cc3ccccc3nc2C)c1
-14% | CCOc1ccc(NC(=O)C2CC=CCC2C(=O)O)cc1 (stereo not given)
-7% | CCOC(=O)N1CCN(C(=O)COc2ccccc2OC)CC1
-11% | COc1ccc(-n2c(Cc3cccn3C)nnc2SCC(=O)Nc2cccc(C)c2C)cc1
? | Cc1nc(-c2ccccc2)cn2c1nc1ccccc12
-17% | CN(C)S(=O)(=O)c1ccc(C(=O)Oc2cc(=O)[nH]c3ccccc23)cc1
? | O=C(O)c1ccc(CSc2nnc(Cc3ccccc3)o2)cc1
-5% | CCc1c(O)nc(SCc2ccccc2)n(C(C)CC)c1=O (stereo not given)
-7% | COc1ccc(-c2cc(C(=O)Nc3c(C)nn(Cc4ccccc4Cl)c3C)no2)cc1
-8% | COC(=O)c1ccc(C(NC(=O)c2ccccc2)[C@]2(C)C[C@H]2C2CCCCC2)cc1 (stereo not given in full)
-10% | CCN(CC)C(NC(=O)c1ccccc1)C(=O)c1ccccc1 (stereo not given)
-1% | CCOc1ccc(-c2nnc3ccc(SCC(=O)NCc4ccco4)nn23)cc1
-6% | Cc1cccc(C(C)C)c1NC(=O)COC(=O)c1cccc(S(=O)(=O)N2CCc3ccccc3C2)c1
-5% | O=C(CC1NCCNC1=O)Nc1ccc(Cl)c(Cl)c1 (stereo not given)
-7% | CCN(CC)S(=O)(=O)c1cc(C(=O)OCC(=O)Nc2cccc(Br)c2)ccc1F
-6% | O=C(NCCCCCCNC(=O)C1CCCC1)C1CCCC1
3.2µM* | S=c1[nH]nc(CSCc2ccc(Cl)cc2Cl)n1-c1ccccc1
-8% | Cc1ccc(NC(=O)COC(=O)c2cc(Cl)ccc2[N+](=O)[O-])c(C)c1
-11% | O=C(c1ccc(C(F)(F)F)cc1)c1c[nH]c(C(=O)NCCCn2ccnc2)c1
-2% | Cc1nn(C)c(C)c1C(=O)NN
-1% | Fc1ccc(C(c2nnnn2C2CCCC2)N2CCN(Cc3ccncc3)CC2)cc1 (stereo not given)
? | CSc1n[nH]c2nc3c(c(=O)n12)C1(CCCC1)Cc1ccccc1-3
-13% | Cc1ccc(C2(CC(=O)N3CCCC3)CCOC(C(C)C)C2)cc1 (stereo not given)
-11% | CCCCCCOc1ccccc1C(N)=O
-14% | COc1ccc(N2CCN(Cc3nnc(-c4ccccc4)o3)CC2)cc1
-20% | CN(C(=O)COC(=O)c1n[nH]c2ccccc12)C1CCS(=O)(=O)C1 (stereo not given)
-6% | Nc1ccccc1N=Nc1c(S(=O)(=O)O)cc2cc(S(=O)(=O)O)cc(O)c2c1O
-8% | CCCCC/C=C\CC1OC1CCCCCCCC(=O)O (stereo not given)
32µM* | CC(C)CC1C(C#N)=C(N)SC(N)=C1C#N
-13% | COC(=O)[C@@H]1CC[C@H](C)[C@@H](c2ccc(C)cc2)N1C(=O)c1ccc(/C=N/OC[C@@H](O)COCc2ccco2)cc1

4 of the compounds above, as labelled records.
CN(C)S(=O)(=O)c1ccc(C(=O)Oc2cc(=O)[nH]c3ccccc23)cc1
- HPGD block = -17%

O=C(O)c1ccc(CSc2nnc(Cc3ccccc3)o2)cc1
- HPGD block = ?

CCc1c(O)nc(SCc2ccccc2)n(C(C)CC)c1=O (stereo not given)
- HPGD block = -5%

COc1ccc(-c2cc(C(=O)Nc3c(C)nn(Cc4ccccc4Cl)c3C)no2)cc1
- HPGD block = -7%

(more compounds)
HPGD block | SMILES
-14% | O=c1c(Cl)c(Cl)cnn1Cc1ccccc1Cl
-24% | Cc1c(Br)c([N+](=O)[O-])nn1CC(=O)Nc1sc2c(c1C(=O)OC(C)C)CCCC2
-16% | Cn1cnc([N+](=O)[O-])c1NC(C)(C)C
14µM* | CCSc1nnc(-c2ccc(Cl)cc2Cl)o1
-18% | COc1cccc(N/C=C/C(=O)c2ccc(Cl)cc2)c1
-26% | COC(=O)[C@@]1(Cc2ccc(F)cc2)[C@H]2c3cc(C(=O)N(C)C)n(Cc4nc5ccccc5[nH]4)c3C[C@H]2CN1C(=O)c1ccccc1
0% | COc1ccc(OC)c(S(=O)(=O)NCCOC23CC4CC(CC(C4)C2)C3)c1
-26% | COc1cc(OC)cc(C(=O)NC(=S)NNC(=O)c2cnccn2)c1
-9% | Cc1c(NC(=O)C2CC(c3ccc(F)cc3)=NO2)c(=O)n(-c2ccccc2)n1C (stereo not given)
-10% | CN1CCN(S(=O)(=O)c2ccc(C(=O)Nc3ccccc3)cc2)CC1
? | CCOCCCNC(=O)c1ccc(OC)cc1
-8% | O=C(O)c1ccc(CSc2nnc(-c3ccncc3)n2CC2CCCO2)cc1 (stereo not given)
? | O=C(c1cc2nc(-c3cccs3)cc(C(F)(F)Cl)n2n1)N1CCCc2ccccc21
-5% | O=C1N/C(=C/c2ccc(Br)cc2)C(O)=C1C=NCc1ccccc1
-20% | Cc1ccc(Oc2nc3ccccc3n3c(C)nnc23)cc1
-7% | COc1cc(C(=O)NCc2nnc(SCC(=O)N3CCC(C)CC3)o2)cc(OC)c1OC
-14% | CCC(C)(C)NC(=O)C(c1ccc(F)cc1)N(Cc1ccco1)C(=O)c1cnccn1 (stereo not given)
-21% | Cc1ccc(C)c(OCC(=O)NCC(C)C)c1C
-14% | CC1CCC2C(=O)N(c3ccc(C(=O)NCc4ccccc4)cc3)C(=O)C2C1 (stereo not given)
-14% | CC(=O)c1ccccc1NC(=O)Cn1c(=O)cnc2ccccc21
28µM* | O=C(CSC1=NCCS1)Nc1ccccc1F
-2% | CCOC(=O)N1CCN(C/C(C)=C/c2ccccc2)CC1
-7% | O=C(COC(=O)C1CCCN1C(=O)c1cccs1)Nc1ccc2c(c1)OCO2 (stereo not given)
10µM* | Cc1cc(O)c(C=O)c2c1C(=O)Oc1c(C)c(O)c3c(c1O2)C(O)OC3=O (stereo not given)
-21% | COc1ccc(-c2nc(-n3c(C)c(C(C)=O)c(C(C)=O)c3C)sc2C)cc1OC
-12% | CCCCSc1nc(C)cc(SCC(=O)N/N=C/c2cccc(OC)c2O)n1
-4% | CCN(CC(=O)NC(C)(C)C)C(=O)CCl
1% | Cc1cccc(NC2=Nc3ccccc3N3C2=Nc2c(c(C)nn2-c2ccccc2)C3c2ccc(O)c(O)c2)c1 (stereo not given)
-17% | O=C(Nc1ccncc1)c1ccc2c(c1)C(=O)N(CC1CCCO1)C2=O (stereo not given)
-3% | Nc1nnnn1/N=C/c1ccco1
-8% | O=C(O)CCC(=O)N1CCc2cc(S(=O)(=O)N3CCC(Cc4ccccc4)CC3)ccc21
3% | CCc1ccc(NC(=O)c2noc3c2CCc2ccccc2-3)cc1
-19% | Cc1ccc(NC(=O)CSc2nnc(CCCCCNC(=O)OC(C)(C)C)o2)c(C)c1
-4% | CCN(CCO)Cc1csc2cccc(Br)c12
-2% | O=C(NC1CC1)c1ccc(S(=O)(=O)NCC2CCCCC2)cc1
-5% | O=C1CSC(c2ccco2)N1 (stereo not given)
? | CC1(C)Nc2ccccc2C(=O)N1NS(=O)(=O)c1ccccc1
? | CCc1c(C)c2cc(Cl)c(O)c(CN(CC)CC)c2oc1=O
-4% | NC(=O)Nc1nc2ccccc2[nH]1
-11% | COc1ccc(C)cc1NC(=O)CSc1nnc(CC(=O)Nc2cccc(C(F)(F)F)c2)n1C
-16% | CCCCN(CCCNC(=O)CN1C(=O)COc2ccccc21)c1ccccc1
-12% | CCc1c(C)[nH]n(CCC#N)c1=O
? | CC(=O)CSc1nsc(SCC(C)=O)c1C#N
-9% | Cc1ccc(N2CC(C(=O)NC3=NCCS3)CC2=O)cc1C (stereo not given)
25µM* | CC(=O)c1cccc(NC(=O)Cc2ccc3c(c2)CCCC3)c1
16µM* | CCn1c(C(=O)NCc2cccnc2)cc2sc(Cl)cc21
-17% | CC(=O)Oc1cc(OC(C)=O)c2c(=O)cc(-c3ccc(OC(C)=O)c(OC(C)=O)c3)oc2c1
-2% | Cc1ccc(S(=O)(=O)N2CCC(C(=O)N(C)C3CCS(=O)(=O)C3)CC2)cc1 (stereo not given)
-8% | Cn1c(N2CCOCC2)c(/C=N/OC(=O)c2ccc(F)cc2)c2ccccc21
-2% | COc1ccc(CCNC(=O)CCn2c(=O)oc3ccccc32)cc1
5% | CC(=O)Nn1c(C)nnc1-n1nc(C)cc1C
? | CCCCNc1ccccc1C(=O)OCC(=O)Nc1ccc(S(N)(=O)=O)cc1
-8% | CC1CCC(NC(=O)CN2CCCN(Cc3ccc(F)cc3Cl)C2=O)CC1 (stereo not given)
-16% | COc1ccccc1NS(=O)(=O)c1cc(NC(=O)CNC(=O)c2ccc(C)s2)ccc1Cl
10µM* | O=C(NC(=S)Nc1ccc2c(c1)OCO2)c1ccccc1
0% | CCOC(=O)C1CCN(C(C(=O)NC2CCCCC2)c2ccc(OC)cc2)CC1 (stereo not given)
-1% | CC(SCc1ccccc1)C(=O)Nc1ccccc1-c1ccccc1 (stereo not given)
-13% | CSc1nnc2c(n1)OC(c1ccc(C(=O)O)cc1)N(C(C)=O)c1ccccc1-2 (stereo not given)
-9% | CC1(C)CC(O)CC(C)(C)N1CC(O)COCCOc1ccc(Br)cc1 (stereo not given)
-10% | COC(=O)CSc1nnc(-c2ccncc2)o1

The list continues:
HPGD block | SMILES
-12% | Cc1cccc(NC2=NCC(=O)N2CCc2ccccc2)c1
? | CC1CN(C(=O)/C=C/c2ccc3c(c2)OCO3)CC(C)O1 (stereo not given)
-9% | CCOc1cc(C2NC(=S)NC(C)=C2C(=O)Nc2ccc(OC)cc2)ccc1O (stereo not given)
-9% | CN(C)C(=O)C[n+]1ccc(/C=N/O)cc1
-8% | COC(=O)C1=C(C)N(CCc2ccccc2)C(=O)C1
? | Cc1cccc(-n2c(=O)[nH]c3c(C(N)=O)nc(C(C)C)nc32)c1
-6% | CCN(C(=O)c1cc2cccc(OC)c2oc1=O)C1CCCCC1
-17% | COc1ccccc1OCC(=O)NCCSCc1ccc(Cl)cc1
-15% | O=C(NC(=S)Nc1ccccc1N1CCOCC1)c1sc2ccccc2c1Cl

Random excerpt: 3 entries already listed, in no set order.
HPGD block | SMILES
? | Cc1cccc(-n2c(=O)[nH]c3c(C(N)=O)nc(C(C)C)nc32)c1
-8% | COC(=O)C1=C(C)N(CCc2ccccc2)C(=O)C1
-6% | CCN(C(=O)c1cc2cccc(OC)c2oc1=O)C1CCCCC1
